HIV Env fusion = HIV envelope-mediated fusion inhibition; AID 651610; hit rate 1.1% among 360,000; inhibition, % at 12.3 µM; HeLa-JRFL Env/CEM21 cell fusion, luciferase;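 active = mean replicate inhibition score of at least 50 and every replicate individually at or above 50; inconclusive = only one of the two criteria met; inactive = mean below 50 and not all replicates reaching 50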;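 note: 0% = plate neutral controls and 100% = maraviroc near 300 nM; one replicate is shown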
UUG fidelity = yeast start codon fidelity modulation. S. cerevisiae UUG-firefly luciferase reporter, luminescence/redox ratio. activity score, % at 18.7 µM. hit rate 0.13% among 350,000;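 active = replicate mean at a twofold rise or more, about +100% in these data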;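 note: firefly luciferase made from a UUG start codon reports start codon fidelity; reporter light over untreated wells divided by growth signal over untreated wells; some hits fall short of that in this replicate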
MT1-MMP act inh = blocks activation of human MT1-MMP; P50281; HT1080 RFP-PRO-GFP cells, GFP/RFP ratio fluorescence, overnight; percent of plate control window, DMSO zero; GFP/RFP ratio change, % at 20 µM; hit rate 0.061% among 360,000;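 active = GFP/RFP ratio change of at least 30% with cell ATP level not reduced by more than half and red fluorescence within 50% of control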; note: strong numbers were not always called active
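Assay system – RFP-PRO-GFP reporter HT1080 cells · Compound dosing – single dose of 20 µM compound, 1% DMSO final · Incubation – overnight compound exposure at 37 °C · Measure – GFP/RFP fluorescence ratio · Benchmarks – DMSO wells and RFP-L50D-GFP cells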
MT1-MMP act inh RFP = recorded beside MT1-MMP act inh, whose call it bears; RFP signal change, %; measured here: RFP expression control read;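 0 = vehicle wells; hits needed this value within 50% of zero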
* hit, by the source's call; ? = inconclusive; / = not tested or not shown; [ ] = remark or other dose. Not all compounds are listed, so the mix of outcomes need not match the whole.

SMILES	HIV Env fusion	UUG fidelity	MT1-MMP act inh	MT1-MMP act inh RFP
COCC#Cc1ccc2c(c1)O[C@@H](CN(C)C(C)=O)[C@@H](C)CN([C@@H](C)CO)S2(=O)=O	3[16.7 µM]	-9	/	/
C[C@@H]1CN([C@H](C)CO)C(=O)c2cc(NC(=O)C3CCCCC3)ccc2O[C@@H](C)CCCCO[C@@H]1CN(C)C(=O)CCC(F)(F)F	-3[16.7 µM]	20	/	/
CC(C)NC(=O)N(C)C[C@H]1Oc2ncc(C#CCc3ccccc3)cc2C(=O)N([C@H](C)CO)C[C@@H]1C	18[16.7 µM]	6	/	/
CC(C)NC(=O)Nc1ccc2c(c1)CC(=O)N([C@@H](C)CO)C[C@H](C)[C@@H](CN(C)Cc1ccccc1)O2	-2[16.7 µM]	-3	/	/
C[C@@H]1CN([C@H](C)CO)C(=O)c2cc(NS(=O)(=O)c3cccs3)ccc2O[C@H]1CN(C)Cc1ccc(C(F)(F)F)cc1	-22[16.7 µM]	-6	/	/
COCC(=O)Nc1ccc2c(c1)[C@H]1C[C@H](CC(=O)NC3CCCC3)O[C@@H](CO)[C@H]1O2	-1[16.7 µM]	-12	/	/
C[C@H]1CN([C@@H](C)CO)C(=O)c2cc(N(C)C)ccc2O[C@@H]1CN(C)Cc1ccccc1	-1[16.7 µM]	-10	/	/
C[C@@H]1CCCCO[C@@H](CN(C)C(=O)Cc2ccccc2)[C@H](C)CN([C@H](C)CO)C(=O)c2cc(NS(=O)(=O)c3ccc(F)cc3)ccc2O1	-15[16.7 µM]	1	/	/
C[C@@H]1CCCCO[C@@H](CN(C)Cc2ccc(C(F)(F)F)cc2)[C@@H](C)CN([C@H](C)CO)C(=O)c2cc(NC(=O)CCC(F)(F)F)ccc2O1	-17[16.7 µM]	-15	/	/
CC(=O)N(C)C[C@@H]1Oc2ncc(C#CC3(O)CCCC3)cc2C(=O)N([C@H](C)CO)C[C@H]1C	2[16.7 µM]	29	/	/
O=C(C[C@H]1C=C[C@@H](NC(=O)c2ccccc2)[C@@H](CO)O1)NCc1ccncn1	1[16.7 µM]	0	/	/
Cc1noc(C)c1S(=O)(=O)N(C)C[C@H]1Oc2ccc(NC(=O)CCC(F)(F)F)cc2CC(=O)N([C@H](C)CO)C[C@@H]1C	0[16.7 µM]	15	/	/
O=C(C[C@H]1C[C@@H]2c3cc(NC(=O)Nc4ccccc4F)ccc3O[C@@H]2[C@H](CO)O1)NCC1CC1	2[16.7 µM]	-10	/	/
C[C@@H]1CN([C@H](C)CO)C(=O)c2cc(NC(=O)c3ccncc3)ccc2O[C@@H](C)CCCCO[C@@H]1CN(C)S(=O)(=O)c1cccs1	8[16.7 µM]	0	/	/
C[C@@H]1CN([C@H](C)CO)S(=O)(=O)c2ccc(C#CCN(C)C)cc2O[C@@H]1CN(C)Cc1ccccn1	-29[16.7 µM]	-15	/	/
C[C@H](CO)N1C[C@H](C)[C@H](CN(C)S(=O)(=O)c2ccccc2)Oc2c(NC(=O)Nc3ccc4c(c3)OCO4)cccc2C1=O	1[16.7 µM]	7	/	/
C[C@@H]1CCCCO[C@@H](CN(C)S(=O)(=O)c2ccc(F)cc2)[C@@H](C)CN([C@H](C)CO)C(=O)c2cc(NC(=O)NC3CCCCC3)ccc2O1	-21[16.7 µM]	-6	/	/
COc1ccc(NC(=O)Nc2ccc3c(c2)C(=O)N([C@@H](C)CO)C[C@H](C)[C@@H](CN(C)S(=O)(=O)c2ccc(F)cc2)OCCCC[C@@H](C)O3)cc1	0[16.7 µM]	-15	/	/
C[C@H]1CN([C@@H](C)CO)S(=O)(=O)c2ccc(-c3ccc(C(=O)N(C)C)cc3)cc2O[C@H]1CN(C)C(=O)Nc1ccccc1F	-25[16.7 µM]	-9	/	/
COc1cccc(CNC(=O)C[C@H]2CC[C@H](NC(=O)C3CC3)[C@H](CO)O2)c1	3[16.7 µM]	-12	/	/
Cc1ccc(S(=O)(=O)Nc2cccc3c2O[C@H](CN(C)CC2CC2)[C@H](C)CN([C@H](C)CO)C3=O)cc1	8[16.7 µM]	-7	/	/
C[C@@H]1CN([C@@H](C)CO)S(=O)(=O)c2ccc(-c3ccncc3)cc2O[C@@H]1CN(C)S(C)(=O)=O	-9[16.7 µM]	-7	/	/
C[C@H]1CN([C@@H](C)CO)S(=O)(=O)c2ccc(Br)cc2O[C@@H]1CN(C)C(=O)c1cnccn1	-6[16.7 µM]	-3	/	/
Cc1noc(C)c1NC(=O)N(C)C[C@H]1OCCCC[C@H](C)Oc2ccc(NC(=O)NC(C)C)cc2C(=O)N([C@@H](C)CO)C[C@H]1C	2[16.7 µM]	-2	/	/
COc1ccc(S(=O)(=O)Nc2ccc3c(c2)C(=O)N([C@H](C)CO)C[C@@H](C)[C@H](CN(C)Cc2ccc(Cl)c(Cl)c2)OCCCC[C@H](C)O3)cc1	?	4	/	/
C[C@@H]1CN([C@H](C)CO)C(=O)c2cc(NS(=O)(=O)c3cn(C)cn3)ccc2O[C@@H](C)CCCCO[C@@H]1CN(C)Cc1ccc(C(F)(F)F)cc1	-13[16.7 µM]	4	/	/
C[C@@H]1CN([C@@H](C)CO)C(=O)Cc2cc(NC(=O)CCC(F)(F)F)ccc2O[C@H]1CN(C)S(C)(=O)=O	-20[16.7 µM]	-9	/	/
C/C=C/c1ccc2c(c1)O[C@@H](CN(C)C(=O)CC1CC1)[C@H](C)CN([C@H](C)CO)S2(=O)=O	-10[16.7 µM]	19	/	/
COc1ccc(S(=O)(=O)Nc2cccc3c2O[C@@H](CN(C)CC2CCCCC2)[C@H](C)CN([C@@H](C)CO)C3=O)cc1	-20[16.7 µM]	6	/	/
CC(=O)N(C)C[C@@H]1Oc2cc(C#CCC3CCCC3)ccc2S(=O)(=O)N([C@@H](C)CO)C[C@H]1C	7[16.7 µM]	2	/	/
CN(C)CC(=O)N1[C@@H](C#N)[C@@H](c2ccc(C#CC3CCCCC3)cc2)[C@@H]1CO	14[16.7 µM]	-1	/	/
Cc1ccc(S(=O)(=O)NCC[C@H]2CC[C@@H](NC(=O)c3ccccn3)[C@H](CO)O2)cc1	-9[16.7 µM]	5	/	/
COc1ccc(CN(C)C[C@H]2Oc3ccc(NS(=O)(=O)c4ccc(OC)cc4)cc3CC(=O)N([C@@H](C)CO)C[C@@H]2C)cc1	5[16.7 µM]	-12	/	/
C[C@H](CO)N1C[C@H](C)[C@H](CN(C)Cc2ccccn2)Oc2ncc(C#Cc3ccccc3)cc2C1=O	-10[16.7 µM]	-28	/	/
CCN(CC)Cc1nc2nc(Cl)c(Cl)nc2[nH]1	/	-24	0	1
O=C1CN(CCN2CC(=O)N(Cc3ccccc3)C(=O)C2)CC(=O)N1Cc1ccccc1	/	-10	0	-10
Cc1cc2oc(=O)cc(CN(C)Cc3ccccc3)c2cc1Cl	/	-10	-2	0
O=C(CC[C@H]1O[C@@H](n2ccc(=O)[nH]c2=O)[C@H](O)[C@@H]1O)NCc1cccc2ccccc12	/	-8	2	7
COc1ccc(NS(=O)(=O)c2ccc(NC(=O)c3ccccn3)cc2)cc1	/	1	6	-14
O=C(CN(Cc1ccco1)C(=O)c1cccc(F)c1)Nc1ccccc1C(F)(F)F	/	-3	7	3

An excerpt from further up:
SMILES	HIV Env fusion	UUG fidelity	MT1-MMP act inh	MT1-MMP act inh RFP
CC(=O)N(C)C[C@@H]1Oc2cc(C#CCC3CCCC3)ccc2S(=O)(=O)N([C@@H](C)CO)C[C@H]1C	7[16.7 µM]	2	/	/
CN(C)CC(=O)N1[C@@H](C#N)[C@@H](c2ccc(C#CC3CCCCC3)cc2)[C@@H]1CO	14[16.7 µM]	-1	/	/

New compounds follow:
SMILES	HIV Env fusion	UUG fidelity	MT1-MMP act inh	MT1-MMP act inh RFP
Nn1c(SCC(=O)Nc2ccccc2Oc2ccccc2)nnc1C1CC1	/	3	2	5
CCCCN(C(=O)Cc1ccc2c(c1)OCCO2)c1c(N)n(CCC)c(=O)[nH]c1=O	/	-18	1	0
Cc1ccc(S(=O)(=O)N2CCC(C(=O)NCC(C)(C)N3CCOCC3)CC2)c(C)c1	/	-14	0	-1
C=CC(=O)Nc1ccc(Nc2nc(NC3CCC(N(C)C)CC3)nc3c2ncn3C(C)C)cc1 (stereo not given)	/	0	-36	-21
COc1cc(Cn2c3ccc(NC(=O)CC(C)C(F)(F)F)cc3c(=O)n2C)ccc1F (stereo not given)	/	-12	-7	-9
Cc1ccc(NC(=O)CN(C)C(=O)COC(=O)c2ccc(Cl)cc2O)cc1	/	-33	2	-2
CN(C)S(=O)(=O)c1ccc(Cl)c(C(=O)NNC(=O)Cc2nc3ccccc3n2C)c1	/	-19	-3	0
COc1ccc(C2=NOC(Cn3nc(-c4ccccc4)cc3C(=O)NCc3cccc(C(F)(F)F)c3)C2)cc1 (stereo not given)	/	-10	3	0
C[C@]12c3[nH]c4cc(-c5ccco5)ccc4c3CCN1C(=O)[C@@H](CC(=O)NCCCn1ccnc1)C[C@@H]2C(=O)N1CCOCC1	/	-11	4	3
C[C@H]1Cn2cnc(C(=O)N[C@@H](Cc3c[nH]c4ccccc34)C(=O)OC(C)(C)C)c2C(=O)N1	/	-17	1	0
O=C(c1ccccc1OC(F)F)N1CCN(S(=O)(=O)c2ccc3c(c2)OCCCO3)CC1	/	5	8	1
CC(C)COc1cccc(C(=O)N(CC(=O)Nc2ccccc2C(F)(F)F)Cc2ccco2)c1	/	-1	2	-3
C=C[C@H]1C(O[C@@H]2O[C@H](CO)[C@@H](O)[C@H](O)[C@H]2O)OC=C2C(=O)N3CCc4cc(OC)c(O)cc4[C@H]3C[C@H]21 (stereo not given in full)	/	6	1	2
Cc1ccc(N(Cc2ccccc2)C(=O)c2cc(S(=O)(=O)N3CCOCC3)ccc2F)cc1	/	-5	-12	0
Cc1noc(C)c1COc1ccccc1C(=O)NC(C)c1ccc(F)cc1 (stereo not given)	/	-5	1	-2
CCN(CC(=O)NC1CCS(=O)(=O)C1)C(=O)c1cc(OC)c(OC)c(OC)c1 (stereo not given)	/	-10	1	4
CC(NCC(=O)Nc1ccccc1C(=O)NC1CC1)c1ccc(S(C)(=O)=O)cc1 (stereo not given)	/	-9	2	5
CC(C)CN(C(=O)COC(=O)c1cc(=O)[nH]c2ccccc12)c1c(N)n(Cc2ccccc2)c(=O)[nH]c1=O	/	1	-2	2
COC(=O)c1c(C)[nH]c(C(=O)CN2C(=O)NC3(CCOc4ccccc43)C2=O)c1C (stereo not given)	/	-8	3	2
CC(OC(=O)CC1CC2CCC1C2)C(=O)Nc1ccc(C(N)=O)cc1 (stereo not given)	/	-18	7	-2

Compound profiles (already shown). Values in the order: HIV Env fusion	UUG fidelity	MT1-MMP act inh	MT1-MMP act inh RFP
Record of `O=C(C[C@H]1C=C[C@@H](NC(=O)c2ccccc2)[C@@H](CO)O1)NCc1ccncn1` = 1[16.7 µM]	0	/	/
Record of `Cc1ccc(S(=O)(=O)N2CCC(C(=O)NCC(C)(C)N3CCOCC3)CC2)c(C)c1` = /	-14	0	-1
Record of `COc1ccc(S(=O)(=O)Nc2ccc3c(c2)C(=O)N([C@H](C)CO)C[C@@H](C)[C@H](CN(C)Cc2ccc(Cl)c(Cl)c2)OCCCC[C@H](C)O3)cc1` = ?	4	/	/
Record of `COc1ccc(S(=O)(=O)Nc2cccc3c2O[C@@H](CN(C)CC2CCCCC2)[C@H](C)CN([C@@H](C)CO)C3=O)cc1` = -20[16.7 µM]	6	/	/

Carrying on:
SMILES	HIV Env fusion	UUG fidelity	MT1-MMP act inh	MT1-MMP act inh RFP
O=C(CN1CCN(c2ccccc2O)CC1)Nc1cc(S(=O)(=O)N2CCCC2)ccc1Cl	/	0	1	-10
CCOC(=O)C1(C)CCCN(C(=O)Cc2ccc3ccccc3c2)C1 (stereo not given)	/	-2	-3	-6
Cc1noc(NS(=O)(=O)c2ccc(NC(=O)c3ccccc3NS(=O)(=O)c3ccc(F)c(F)c3)cc2)c1C	/	-5	-1	4
CN(CCc1ccccc1)C(=O)c1ccc(NC(=O)Cc2cccc(NC(=O)C3CCN(C(=O)C4CCCC4)CC3)c2)cc1	/	-17	4	-9
COc1cccc(CN(C)C(=O)CN2C(=O)NC(c3ccccc3)(c3ccccc3)C2=O)c1	/	3	-3	-3
CC(=O)c1c(O)cc(O)cc1O	/	-12	-3	1
COc1cc(/C=C/C(=O)OCC(=O)c2ccc3c(c2)NC(=O)CO3)ccc1OC(F)F	/	-12	-5	-2
COc1cc(C(=O)N2CCN(S(=O)(=O)c3cc(C)ccc3C)CC2)ccc1OCC(=O)N1CCOCC1	/	15	1	3
CC1(C)CC[C@]2(C(=O)O)CC[C@]3(C)C(=CCC4[C@]56CC[C@@](O)(OC5)C(C)(C)C6CC[C@]43C)C2C1 (stereo not given in full)	/	-9	10	-16
C=C(C)C1CC=C(C)C(=NNC(=O)c2ccncc2)C1 (stereo not given)	/	-17	3	-4
CCCCOc1ccc(C(=O)NCC(=O)NCCCn2nc(C)cc2C)cc1	/	-10	2	1
COc1ccccc1C(=O)NC(=O)CSc1nc2nc(C)cc(C)n2n1	/	-11	0	3
COc1cc2ccnc(C=O)c2cc1OC	/	1	-1	-3

Bioassay records (PubChem BioAssay)
